Assay outcomes from PubChem.
E coli growth: inhibitors of Escherichia coli growth | OD600, 23 h; hits give low values | OD600 absorbance (concentration not given with the values) | 330,000 tested, 0.21% active;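 active = OD600 absorbance below the run mean of sample wells minus 3.6 SD, in any replicate, cut at about 0.56 in these data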;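 note: stock transfer was 300 nL into about 60 µL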
LANA-H2A inh: blocks KSHV LANA binding to histone H2A/H2B. Q9QR71. 320,000 tested, 0.6% active. inhibition, % (concentration not given with the values). AID 2629. cell-free LANA-H2A/H2B peptide, fluorescence polarization; in the data active = inhibition mostly above about 10%, no sharp cut-off; inactive = mostly below about 6.7%;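 note: stock transfer was 7.5 nL into about 10 µL; 0% = median of vehicle wells and 100% = median of positive control wells; one replicate is shown; the record names a cut of 25% in any replicate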
HNF4A DNA FP: change in binding of human HNF4 alpha to DNA | P41235 | activity change, % at 10 µM | AID 1224865 | HNF4a-FITC DNA binding, fluorescence polarization, 1 h | 360,000 tested, 0.3% active; in the data active = activity change above about 30%, passing the limit was not always enough;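 note: controls were the assay level and a saturating level of protein; the project sought stronger binding though the title names inhibitors; some compounds called inactive have numbers as strong as hits; positive values seem to mean higher polarization but the record does not say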
Target sequence (P41235 whole entry, looked up): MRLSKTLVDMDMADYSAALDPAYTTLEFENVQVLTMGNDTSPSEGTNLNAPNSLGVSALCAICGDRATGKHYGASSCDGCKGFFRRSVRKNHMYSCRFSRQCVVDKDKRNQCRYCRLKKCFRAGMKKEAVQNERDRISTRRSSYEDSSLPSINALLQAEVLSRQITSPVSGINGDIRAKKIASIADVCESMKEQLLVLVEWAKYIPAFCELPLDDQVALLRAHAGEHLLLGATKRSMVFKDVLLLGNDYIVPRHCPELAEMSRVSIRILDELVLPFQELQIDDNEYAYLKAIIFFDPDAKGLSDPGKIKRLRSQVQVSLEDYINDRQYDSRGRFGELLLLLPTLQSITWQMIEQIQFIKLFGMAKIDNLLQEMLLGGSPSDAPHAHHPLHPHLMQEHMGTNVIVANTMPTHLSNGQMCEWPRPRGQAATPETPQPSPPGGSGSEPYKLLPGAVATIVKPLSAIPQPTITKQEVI
UCH37 DUB inh: inhibitors of human deubiquitinating enzyme UCH37; 330,000 tested, 0.33% active; inhibition, % (test concentration not listed); purified proteasome/UCH37, Ub-AMC cleavage fluorescence; Q9Y5K5;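 active = mean of two replicates above 20%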;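 note: 0% = compound-free wells with enzyme and 100% = wells lacking proteasome; stock transfer was 100 nL into about 20 µL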
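Test system – human UCH37 enzyme supplied as purified proteasome complex · Incubation – 30 min preincubation with enzyme, 25 min cleavage at room temperature · Detection – AMC fluorescence from Ub-AMC cleavage, excitation 355 nm, emission 460 nm · Benchmarks – no-proteasome wells (full inhibition) and compound-free wells (no inhibition)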
B2AR ag: human beta-2 adrenergic receptor agonism by FAP | P07550 | Am2.2-beta2AR cells, FAP receptor internalization, flow cytometry; reference of the scale not given here | response, % (no concentration beside the values) | 340,000 tested, 0.43% active | AID 504454;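 active = response above a set limit, near 3 SD of response in nonfluorescent compounds, cut at about 42% in these data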;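 note: stock transfer was 100 nL into about 11 µL; a reference agonist was the positive control; negative values mostly stem from fluorescent compounds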
ALR inh: inhibitors of human sulfhydryl oxidase ALR; P55789; purified ALR, DTT oxidation, H2O2 HRP-luminol luminescence; inhibition, % (concentration not given with the values); 290,000 tested, 3.8% active; AID 485317;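 active = mean and each replicate at 75% or more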;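 note: stock transfer was 7.5 nL into about 7.5 µL; 0% = neutral wells and 100% = wells with inactivated enzyme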
Target sequence (P55789 whole entry, looked up): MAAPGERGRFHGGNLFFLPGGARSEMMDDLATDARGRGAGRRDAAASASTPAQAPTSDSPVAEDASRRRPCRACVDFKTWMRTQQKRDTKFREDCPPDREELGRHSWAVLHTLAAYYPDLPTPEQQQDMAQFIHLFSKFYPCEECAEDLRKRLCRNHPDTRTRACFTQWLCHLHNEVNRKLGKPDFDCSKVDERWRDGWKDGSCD
FGF22 binding: FGF22 (human) thermal shift binding | recombinant FGF22 thermal shift, SYPRO orange fluorescence; percent of sucrose octasulfate shift, DMSO zero | Q9HCT0 | calls only at 9.99 µM | AID 651658 | 340,000 tested, 1.5% active;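 active = melting point raised past a set limit in the mean and every replicate; three in four hits are not shown here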
Target sequence (Q9HCT0 whole entry, looked up): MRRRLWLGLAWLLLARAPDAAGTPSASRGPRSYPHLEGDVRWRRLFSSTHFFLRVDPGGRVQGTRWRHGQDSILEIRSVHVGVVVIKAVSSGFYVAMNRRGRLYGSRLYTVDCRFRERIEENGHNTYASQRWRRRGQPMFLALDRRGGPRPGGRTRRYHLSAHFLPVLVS
* hit, by the source's call; i = inactive; / = not tested or not shown.

SMILES | E coli growth | LANA-H2A inh | HNF4A DNA FP | UCH37 DUB inh | B2AR ag | ALR inh | FGF22 binding
COc1ccc(S(=O)(=O)N2CCOC2CNC(=O)C(=O)NCCc2c[nH]c3ccccc23)cc1C (centres undefined) | 0.76 | -3.8 | 4.9 | -1.5 | 26 | -6 | i
COc1ccc2c(C)c(C(=O)N3CC[C@@H](N4CCC(O)CC4)[C@H](O)C3)oc2c1 | 0.69 | -4.9 | 0.0 | 1.8 | -19 | -3 | i
CCOC(=O)CCc1c(C)nc(SCCN2CCCC2)c(C#N)c1C | 0.72 | 7.7 | 3.9 | 2.3 | 7 | -9 | /
Fc1ccc2cc(-c3ccccc3)ncc2c1 | 0.76 | 0.1 | 3.4 | 0.7 | -15 | 3 | i
CCOc1ccc2nc3sc(C(=O)N4CCOCC4)c(N)c3cc2c1 | 0.72 | 0.9 | 3.4 | 3.6 | 6 | / | i
O=C(NCCc1ccccn1)c1cncc(Br)c1 | 0.7 | 6.9 | 1.7 | 4.4 | -12 | -9 | i
Cc1ccccc1NC(=S)NC(NC(=O)N(C)C)C(Cl)(Cl)Cl (centres undefined) | 0.68 | 0.8 | -0.9 | 3.2 | -4 | -10 | /
Cc1cc(OC(C)C(=O)NCc2ccccn2)c2c(C)cc(=O)oc2c1 (centres undefined) | 0.66 | 2.6 | 2.2 | -153 | 15 | -18 | i
COc1ccc(NC(=O)Nc2ccc3c(c2)CC(=O)N([C@H](C)CO)C[C@@H](C)[C@H](CN(C)C(=O)Nc2ccccc2)O3)cc1 | / | -3.5 | 3.0 | 2.3 | -6 | -6 | i
Cc1ccc(S(=O)(=O)N2CCCN(S(=O)(=O)c3ccccc3Br)CC2)cc1 | 0.73 | / | -1.0 | -1.7 | -7 | / | i
CCCOc1ccc(Cc2c(O)nc(SC)[nH]c2=O)cc1C | 0.67 | 5.2 | -0.4 | 0.6 | -6 | -9 | i
CN(C(=O)COC(=O)c1cccc(S(=O)(=O)N(C)c2ccccc2)c1)C1CCCCC1 | 0.66 | -2.4 | -0.6 | 2.8 | -6 | / | i
CCN(Cc1ccccc1)C(=O)CCNS(=O)(=O)c1ccc2c(c1)CC(C)N2C(C)=O (centres undefined) | 0.7 | -5.7 | 10.0 | 0.5 | 2 | -11 | i
CCOC(=O)C1CCCN(S(=O)(=O)c2cc(Br)cc3c2N(C(=O)C2CC2)CC3)C1 (centres undefined) | 0.71 | 2.8 | 3.6 | -1.5 | 2 | 19 | /
O=c1c([N+](=O)[O-])cccn1Cc1cccc(Cl)c1 | 0.67 | 2.3 | -0.1 | 8.2 | -7 | 9 | /
COc1ccc(OC)c(NC(=O)N2CCCc3ccccc32)c1 | 0.69 | -1.7 | -4.0 | 5.7 | -6 | -38 | i
CC1Cc2ccccc2N1Cc1ccc([N+](=O)[O-])cc1 (centres undefined) | 0.67 | -6.8 | 3.0 | 5.7 | 25 | 48 | i
Cc1ccc(NC(=O)Cn2c(O)c(N=NC(=O)c3cc4ccccc4cc3O)c3ccccc32)cc1 | 0.64 | i | 3.8 | 19 | -3 | -1 | /
Cc1cccc(C(=O)NNC(=O)CN2C(=O)c3ccccc3C2=O)c1 | 0.71 | -9.1 | -3.1 | 2.3 | 5 | -10 | i
O=C1NC(=O)/C(=C\c2ccc(OCc3cccc([N+](=O)[O-])c3)cc2)N1 | / | -5.6 | 2.0 | / | 12 | -2 | i
O=C(Nc1nnc(C2CC2)s1)c1cc2ccccc2o1 | 0.69 | / | 3.8 | -13 | 1 | / | i
COc1ccc(OC)c(NC(=O)c2cccnc2Sc2ccccc2)c1 | 0.71 | 0.8 | 2.3 | 2.4 | 3 | -2 | /
CC(=O)Nc1ccc(C(=O)c2ccccc2)cc1 | 0.76 | -2.5 | 0.8 | 5.3 | -8 | -16 | /
Cc1cc([N+](=O)[O-])ccc1Nc1nc2ccccc2n2cnnc12 | 0.68 | -3.8 | 2.9 | 3.1 | 14 | -2 | i
Nc1nc(SCC(=O)Nc2ccc(OC(F)(F)F)cc2)[nH]c(=O)c1NC(=O)c1ccc(Br)o1 | 0.7 | 2.6 | -4.7 | 3.7 | -4 | 2 | i
Cc1cc(C2=NNC(=Nc3ccccc3)SC2)c(C)n1C | 0.67 | -1.5 | -2.8 | 5.0 | 6 | -2 | i
Cc1cccc(NC(=O)c2csnn2)n1 | 0.68 | 7.0 | 0.6 | 1.7 | -13 | 13 | i
O=C(/C=C/c1ccco1)N1CCN(S(=O)(=O)c2cccs2)CC1 | 0.7 | -3.0 | -4.8 | 2.2 | -6 | / | i
Cn1c2ccccc2c2c(C(=O)NCC3CCCO3)cn(C3CCCC3)c(=O)c21 (centres undefined) | 0.71 | 2.6 | -2.1 | -35 | 1 | 0 | /
OCCC1CN(Cc2cccn2-c2ncccn2)CCN1Cc1ccc(F)cc1 (centres undefined) | 0.64 | -1.9 | 3.9 | -0.2 | -7 | / | i
O=C(O)CSCC(=O)c1ccccc1 | 0.71 | -4.6 | -2.4 | 4.0 | 7 | -43 | i
CCOC(=O)c1oc2ccc(S(=O)(=O)n3nc(-c4ccccc4)cc3N)cc2c1C | 0.74 | 5.5 | 4.3 | 3.8 | 4 | -12 | i
CCOc1ccc2[nH]c(O)c(NC(C)=O)c2c1 | 0.7 | -0.3 | -1.8 | 2.5 | 2 | -13 | /
Cc1cccc(N2CCN(C(=O)CS(=O)(=O)Cc3nc(-c4ccccc4F)oc3C)CC2C)c1 (centres undefined) | 0.76 | -1.2 | -2.3 | -0.3 | 13 | 4 | i
Cc1noc(C)c1C(=O)N(CC(=O)NC1CCCC1)Cc1ccccc1F | 0.71 | -0.8 | 1.2 | 3.2 | 6 | 0 | i
COc1ccc(N2CCN(CC(=O)c3ccc(O)c(C)c3O)CC2)cc1 | 0.69 | 2.5 | 1.5 | 6.6 | 8 | 53 | i

An excerpt from above in order of molecular weight, low to high:
SMILES | E coli growth | LANA-H2A inh | HNF4A DNA FP | UCH37 DUB inh | B2AR ag | ALR inh | FGF22 binding
O=c1c([N+](=O)[O-])cccn1Cc1cccc(Cl)c1 | 0.67 | 2.3 | -0.1 | 8.2 | -7 | 9 | /
Cc1cc(C2=NNC(=Nc3ccccc3)SC2)c(C)n1C | 0.67 | -1.5 | -2.8 | 5.0 | 6 | -2 | i
O=C(NCCc1ccccn1)c1cncc(Br)c1 | 0.7 | 6.9 | 1.7 | 4.4 | -12 | -9 | i

Of the compounds above, 2 have a Cl atom:
SMILES | E coli growth | LANA-H2A inh | HNF4A DNA FP | UCH37 DUB inh | B2AR ag | ALR inh | FGF22 binding
Cc1ccccc1NC(=S)NC(NC(=O)N(C)C)C(Cl)(Cl)Cl (centres undefined) | 0.68 | 0.8 | -0.9 | 3.2 | -4 | -10 | /
O=c1c([N+](=O)[O-])cccn1Cc1cccc(Cl)c1 | 0.67 | 2.3 | -0.1 | 8.2 | -7 | 9 | /

Other entries
SMILES | E coli growth | LANA-H2A inh | HNF4A DNA FP | UCH37 DUB inh | B2AR ag | ALR inh | FGF22 binding
COc1cc(OC)cc(C(=O)N2CCC3(CC2)NCCc2[nH]cnc23)c1 | 0.69 | 2.2 | 3.0 | 0.0 | -5 | 4 | i
CC(C)CCNC(=O)NC(=O)COc1ccccc1C#N | 0.67 | -4.9 | 1.8 | -1.2 | 11 | -7 | /
CCOC(=O)C1=C(C)N(CCCC(=O)O)C(=O)NC1c1ccccc1 (centres undefined) | 0.69 | 1.9 | -0.8 | -0.7 | -5 | -1 | i
O=C1CN=C(Nc2cccc(C(F)(F)F)c2)N1C1CCCC1 | 0.72 | -8.3 | 1.2 | 3.0 | 4 | -4 | i
N#CC(Cc1ccc(OC(F)F)cc1)c1nc2ccccc2[nH]1 (centres undefined) | 0.71 | -2.6 | 4.9 | 0.3 | -12 | -5 | /
Cc1cc(C)n(-c2ccc(C(=O)OCC(=O)N3CCN(c4ccccc4)CC3)cc2)n1 | 0.69 | 4.0 | 1.0 | 5.0 | 6 | 35 | i
COc1ccc(C)cc1NC(=O)CCN1CC(C)OC(C)C1 (centres undefined) | 0.69 | -6.2 | -1.0 | 3.1 | 2 | -6 | i
Cc1ccc(NC(=O)C(C)c2ccc(-c3ccccc3)c(F)c2)c(C)c1 (centres undefined) | 0.76 | 1.9 | -1.6 | 2.0 | 6 | -2 | /
CC1CCCN(c2ccc(C(=O)OCC(=O)N3c4ccccc4Sc4ccccc43)cc2[N+](=O)[O-])C1 (centres undefined) | 0.74 | -7.6 | 2.9 | 7.5 | 0 | -2 | i
C=CCN(c1ccc(C(=O)Nc2ccc(C)c(C)c2)cc1)S(C)(=O)=O | 0.68 | 0.0 | 3.6 | 1.0 | -3 | 7 | i
COc1ccc(-c2c(C)c3cc(O)ccc3oc2=O)cc1 | 0.67 | -4.9 | 4.0 | 1.7 | -4 | 3 | i
COc1ccccc1C(=O)OCC(=O)NC(C)CCc1ccccc1 (centres undefined) | 0.71 | 11 | -6.2 | 2.1 | -4 | -20 | i
COc1ccc(C(=O)CSc2ccc3nnc(-c4cccnc4)n3n2)cc1 | 0.71 | -1.8 | 0.8 | 2.2 | -28 | -2 | i
COC(=O)/C(=C1/Oc2ccc(C)cc2S1)C(F)(F)F | 0.72 | -6.9 | -2.6 | 0.3 | 5 | -2 | i
Cc1ccccc1OCc1nc2ccccc2n1C | 0.64 | 7.1 | 3.8 | 3.6 | -19 | -1 | i
CC(Sc1nnc(COc2ccc(Cl)cc2)n1-c1ccccc1)C(=O)O (centres undefined) | / | -1.4 | -0.2 | / | -2 | 5 | /
O=C(CSc1ncnc2c1cnn2CCO)Nc1cccc(C(F)(F)F)c1 | 0.7 | 1.6 | 0.9 | 2.1 | -4 | 46 | /
CCCCCC1CC(CC(=O)Nc2ccc([N+](=O)[O-])cc2)OC1=O (centres undefined) | 0.61 | 0.6 | 0.6 | 2.3 | 11 | 2 | i
COC(=O)c1c(NC(=O)CSc2nnnn2-c2ccc3c(c2)OCO3)sc(C)c1C | 0.69 | 0.2 | -0.8 | 4.9 | 7 | 0 | /
COC(=O)c1cc(OC)c(OC)cc1NC(=O)CN1CCOCC1 | 0.68 | 1.0 | -2.6 | 4.5 | -1 | -3 | /
Cn1c(SCC(=O)Nc2ccc(NC(=O)c3ccccc3F)cc2)nnc1-c1ccncc1 | 0.71 | 0.5 | -0.9 | -31 | -2 | -3 | /
O=C(NCc1cccc(Cl)c1)c1cc(COc2ccc3ncccc3c2)on1 | 0.7 | 3.6 | -0.4 | 4.3 | -13 | -17 | i
Cc1cc(C(=O)NC2CCCCC2C)c2ccccc2n1 (centres undefined) | 0.7 | 2.0 | 1.8 | 1.8 | 8 | 0 | i
CCOc1ncccc1C(=O)OCC(=O)Nc1c(C)cc(C)cc1C | 0.69 | 1.9 | -6.2 | 1.4 | -3 | -13 | /
COc1ccc(-c2noc(CCN3C(=O)c4ccccc4C3=O)n2)cc1OC | 0.74 | -2.0 | 2.1 | 0.2 | 3 | -23 | /
CCOc1ccccc1NS(=O)(=O)N(C)C | 0.7 | -4.3 | 1.7 | 0.5 | 4 | -2 | /
CCCN1C(=O)c2ccccc2NC1c1ccc(Br)cc1 (centres undefined) | 0.62 | 4.5 | 0.4 | -427 | 3 | -3 | i
Cc1cc(C)nc(N2CCC(C(=O)Nc3ccc(Oc4ccccc4)cc3)CC2)n1 | 0.75 | 0.4 | 1.2 | -1.2 | 1 | -4 | /
CC(=O)Nc1ccc(NC(=O)Cn2cnc(S(=O)(=O)N3CCOCC3)c2)cc1 | 0.68 | -0.3 | -2.7 | 3.8 | -7 | -2 | i
COC(=O)C(F)(Sc1c(C)n(C)n(-c2ccccc2)c1=O)C(F)(F)F (centres undefined) | 0.71 | -3.3 | 0.7 | 1.2 | -9 | -2 | /
CCn1c(=O)cc(C(F)(F)F)[nH]c1=S | 0.68 | i | -1.4 | 7.9 | -2 | -2 | i
C=CCOc1ccc(/C=C/C(=O)OCC(=O)N(C)CC(=O)Nc2ccccc2Cl)cc1 | 0.66 | -2.4 | 0.7 | 2.3 | -1 | -2 | i
CCOc1ccc(CCNC(=O)COC(=O)CSc2ccccc2C)cc1OCC | 0.75 | 4.2 | 2.8 | -3.3 | -7 | -1 | i

Not all compounds are listed. The share of hits here may be higher or lower than overall.
